Beta2AR agonist – beta2AR agonists driving receptor internalization, primary screen, cell-based, FAP fluorogen, flow cytometry; Beta-2 adrenergic receptor (Homo sapiens), P07550; Am2.2-beta2AR cells; reference of the scale not given here; response, % (no concentration beside the values); actives 0.43% (n = 340,000);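 active = response above a set limit, near 3 SD of response in nonfluorescent compounds, cut at about 42% in these data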;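 also: stock transfer was 100 nL into about 11 µL; a reference agonist was the positive control; negative values mostly stem from fluorescent compounds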
Target sequence (P07550 whole entry, looked up): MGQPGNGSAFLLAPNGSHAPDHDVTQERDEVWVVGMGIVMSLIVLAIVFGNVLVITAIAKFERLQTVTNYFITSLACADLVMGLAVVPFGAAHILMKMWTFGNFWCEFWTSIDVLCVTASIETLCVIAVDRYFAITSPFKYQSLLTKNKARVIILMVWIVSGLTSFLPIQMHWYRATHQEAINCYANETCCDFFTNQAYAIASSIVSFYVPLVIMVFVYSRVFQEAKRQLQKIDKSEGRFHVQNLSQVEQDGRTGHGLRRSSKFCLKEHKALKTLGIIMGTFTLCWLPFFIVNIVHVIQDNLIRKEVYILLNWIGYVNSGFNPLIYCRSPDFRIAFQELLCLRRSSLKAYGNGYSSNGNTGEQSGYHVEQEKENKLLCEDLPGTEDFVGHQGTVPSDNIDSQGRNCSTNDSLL
LANA-H2A inh – blockers of LANA interaction with H2A/H2B – biochemical, FP readout, HTS, primary screen. cell-free LANA-H2A/H2B peptide, fluorescence polarization. inhibition, % (concentration not given with the values). actives 0.6% (n = 320,000). AID 2629, 2010; in the data active = inhibition mostly above about 10%, no sharp cut-off; inactive = mostly below about 6.7%;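 also: stock transfer was 7.5 nL into about 10 µL; 0% = median of vehicle wells and 100% = median of positive control wells; one replicate is shown; the record names a cut of 25% in any replicate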
HNF4A DNA FP – change in binding of human HNF4A to DNA, primary screen, biochemical, fluorescence polarization, FITC-DNA; 1 h; activity change, % at 10 µM; actives 0.3% (n = 360,000); AID 1224865, 2016; in the data active = activity change above about 30%, passing the limit was not always enough;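 also: controls were the assay level and a saturating level of protein; the project sought stronger binding though the title names inhibitors; some compounds called inactive have numbers as strong as hits; positive values seem to mean higher polarization but the record does not say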
Target sequence (P41235 whole entry, looked up): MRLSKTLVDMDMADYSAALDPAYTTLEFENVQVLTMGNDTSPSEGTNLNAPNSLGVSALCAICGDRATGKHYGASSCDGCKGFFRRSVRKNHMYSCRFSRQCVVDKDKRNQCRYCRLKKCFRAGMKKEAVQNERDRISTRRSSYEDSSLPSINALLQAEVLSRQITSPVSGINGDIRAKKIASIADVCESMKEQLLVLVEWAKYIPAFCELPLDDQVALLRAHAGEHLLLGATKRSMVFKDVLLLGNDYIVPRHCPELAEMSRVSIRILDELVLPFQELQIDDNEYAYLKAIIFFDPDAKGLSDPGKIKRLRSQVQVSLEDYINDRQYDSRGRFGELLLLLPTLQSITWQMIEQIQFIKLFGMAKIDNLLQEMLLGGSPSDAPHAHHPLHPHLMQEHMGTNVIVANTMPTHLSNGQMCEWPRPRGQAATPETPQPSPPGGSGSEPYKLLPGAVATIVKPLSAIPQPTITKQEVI
ALR inh – inhibitors of human ALR sulfhydryl oxidase, primary screen, biochemical, H2O2 detection, HRP-luminol luminescence, single point; FAD-linked sulfhydryl oxidase ALR (Homo sapiens), P55789; purified ALR, DTT oxidation; inhibition, % (concentration not given with the values); actives 3.8% (n = 290,000); AID 485317, 2010;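 active = mean and each replicate at 75% or more; inconclusive = only one of the two met; inactive = neither met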;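 also: stock transfer was 7.5 nL into about 7.5 µL; 0% = neutral wells and 100% = wells with inactivated enzyme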
Target sequence (P55789 whole entry, looked up): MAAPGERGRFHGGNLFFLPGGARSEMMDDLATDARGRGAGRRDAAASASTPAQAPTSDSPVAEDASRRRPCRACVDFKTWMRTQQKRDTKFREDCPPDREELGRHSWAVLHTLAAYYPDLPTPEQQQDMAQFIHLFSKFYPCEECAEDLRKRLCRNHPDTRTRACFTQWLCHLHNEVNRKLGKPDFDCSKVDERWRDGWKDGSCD
Calb FLC – C. albicans growth inhibition with fluconazole, primary screen, CaCi-2 strain, Alamar Blue fluorescence. C. albicans CaCi-2 (fluconazole-resistant clinical isolate) + fluconazole, 48 h. growth inhibition, % (no concentration beside the values). actives 0.57% (n = 300,000);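 active = most replicates above 75%; inconclusive = exactly half above 75%; inactive = most below 75%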;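 also: all wells also contain fluconazole at 8 µg/ml as a sub-toxic cotreatment; 0% = median of DMSO wells and 100% = median of geldanamycin control wells; wells of about 8 µL received 7.5 nL stock; the first replicate is given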
RanGTP-Impb inh – inhibitors of RanGTP-importin-beta interaction, primary screen, biochemical, FRET, CFP-Ran, YFP-importin-beta, homogeneous | actives 1.1% (n = 300,000) | Ran GTPase (GTP-bound) - importin-beta complex | cell-free CFP-Ran/YFP-importin-beta FRET ratio | AID 2216, 2009 | inhibition, % (no concentration beside the values);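 active = most replicates above 15%; inconclusive = exactly half above 15%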;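 also: 0% = DMSO wells and 100% = Ran loaded with GDP instead of GTP; wells of about 40 µL received 100 nL stock; the first replicate is given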
Vif TR-FRET – inhibitors of Vif binding to APOBEC3G peptide, primary screen, biochemical, TR-FRET, GST-Vif 1-94, biotin-A3G peptide, dose response retest (AID 1117319) | actives 0.57% (n = 260,000) | inhibition, %, or IC50 in µM where a hit was titrated | TR-FRET GST-Vif / biotin-A3G peptide binding; higher % means a stronger effect; test concentration not given here; strong numbers were not always called active | Virion infectivity factor (Human immunodeficiency virus type 1 group M subtype B (isolate …;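 active = above the screen mean plus three standard deviations and confirmed in dose response; inconclusive = results disagree or hit not tested in dose response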;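 also: Vif residues 1-94 fused to GST binding biotinylated APOBEC3G peptide 110-148; 0% = full assay without inhibitor and 100% = GST in place of GST-Vif; retest series ran down from 100 µM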
Starred values were filed as active, the others as inactive; ? = inconclusive; . = not tested or not shown; & = joins results of further samples.

SMILES	Beta2AR agonist	LANA-H2A inh	HNF4A DNA FP	ALR inh	Calb FLC	RanGTP-Impb inh	Vif TR-FRET
c1cnc(Oc2ccc(-c3nnco3)cc2)cn1	0.1	0.5	2.8	-5.5	-6.1	1.4	1.3%
Cc1sc2nc(C3CC3)nc(SCC(=O)N3CCCc4ccccc43)c2c1C	.	-8.0	.	3.5	6.0	7.0	.
O=C(NCCc1ccccn1)c1ccc(COc2ccccc2)o1	-12.9	0.4	0.8	-0.7	6.3	5.1	-2.8%
NC(=O)C1CCN(C(=O)c2ccc(Cl)c(S(=O)(=O)N3CCCCCC3)c2)CC1	-4.1	-2.7	0.8	5.5	.	.	.
Cc1ccccc1-n1c(SCC(=O)N/N=C/c2ccccc2OCC(=O)O)nc2ccccc2c1=O	-2.7	-1.4	-5.4	3.8	-7.2	-0.6	10.1%
CCCCCn1c(CCNC(=O)c2cccs2)nc2ccccc21	-14.9	-7.1	-0.5	-2.4	28.0	9.3	-3.2%
Cc1ccc(-c2c(C)sc3ncn(CC(=O)N4CCOCC4)c(=O)c23)cc1C	-4.0	-0.4	3.7	.	-0.1	3.3	-4.6%
O=C(O)CN1C(=O)SC(Nc2ccccc2)C1=O (stereo not given)	-1.9	3.8	1.9	-11.6	-7.0	0.8	-1.4%
CCCC1(C(=O)OC)NC(c2ccc(OC)cc2OC)C2C(=O)N(c3cccc(C(C)=O)c3)C(=O)C21 (stereo not given)	-6.5	0.0	-4.8	-2.5	-2.9	-0.2	.
Cn1c(=N)n(CC(=O)c2ccc(Br)cc2)c2ccccc21	43.0*	3.6	1.4	-3.2	-4.7	4.6	.
CCCCNC(=O)CC(C(=O)N1CCc2ccccc21)n1ccnc1 (stereo not given)	-7.2	2.8	4.3	-12.0	-2.7	2.3	26.6%
C=CCNC(=S)Nc1ccc2nsnc2c1	-2.6	1.5	2.0	-32.9	2.2	-3.4	26.2%
CCCCN(C)C(=O)c1ccc2c(c1)N(CC)C(=O)c1ccccc1S2(=O)=O	-10.6	1.4	0.8	6.6	-2.6	-1.3	9.5%
CC1CCN(S(=O)(=O)c2ccc3ncn(CC(=O)N(C)C4CCCCC4)c(=O)c3c2)CC1	-2.3	-1.6	2.3	-3.9	-5.7	-0.9	-6.7%
Cc1ccc(C)c2[nH]c(=O)c(CN(CCN3CCCC3)C(=O)Nc3cccc(Cl)c3)cc12	20.3	2.5	7.3	-1.6	-8.0	1.4	-6.0%&10.7%
NC1=C(Cl)C(=O)c2ccc(S(N)(=O)=O)cc2C1=O	23.5	.	-1.6	.	.	.	-7.2%
CCC(=O)c1ccccc1OCCN1CCN(CC)CC1	2.0	3.0	-5.0	-13.9	-2.8	1.6	.
Cc1cc(-c2csc(Nc3ccccn3)n2)ccc1F	-11.6	2.1	-0.1	62.2	-5.9	-1.2	-7.2%
O=C(CN1C(=O)c2cccc3cccc1c23)N1CCN(Cc2ccc3c(c2)OCO3)CC1	4.6	-0.4	-3.3	-21.3	-8.6	3.9	-1.3%
Cc1ccc2c(C)c(C(=O)N(C)CCC3CCCCO3)oc2c1C (stereo not given)	8.4	-3.2	1.4	-0.1	-8.1	-2.7	.
CCOc1ccccc1OCCC(=O)NNC(=O)Cn1nc(C)cc1C	-7.2	3.8	1.5	-9.1	-7.8	-2.9	3.0%
Cc1ccc(CNC(=O)CN2C(=O)NC(C)(c3ccccc3Cl)C2=O)cc1 (stereo not given)	-6.8	-1.3	3.1	-2.3	11.1	0.6	.
CCc1nccn1Cc1cc(C=O)ccc1OC	1.3	1.2	3.6	-0.6	-8.4	-1.0	-7.8%
COc1cc(OC)c(C(=O)Nc2ccc(S(=O)(=O)Nc3ncccn3)cc2)cc1OC	2.1	-0.6	-4.2	-12.1	-1.1	3.5	6.5%&-1.5%
CCC(C)NC(=O)CCC(=O)Nc1ccc2nc(N3CCOCC3)cc(C)c2c1 (stereo not given)	8.0	-0.2	3.2	-6.4	0.3	-1.0	-2.1%
CCC1CCCCN1C(=O)CSc1nnc(-c2cccc(Cl)c2)o1 (stereo not given)	-6.5	0.0	-3.5	.	9.2	-0.2	-0.9%
Cc1cc(C)cc(OCCn2nnc3ccccc32)c1	-0.8	-7.2	2.1	0.4	-73.9	3.5	.
O=C(COc1ccccc1)N(Cc1ccco1)c1ccc(O)cc1	6.6	1.6	1.6	5.4	-3.2	-2.0	10.3%
Cc1cc(NC(=O)c2ccc([N+](=O)[O-])o2)ccc1NC(=O)c1ccco1	12.2	.	-0.4	.	57.8*	-4.5	.
O=C(NCCCN1CCOCC1)c1cc(-c2ccc(F)cc2)on1	-3.5	-1.7	2.7	-2.7	3.5	-1.9	-2.4%
CCOC(=O)c1ccc(NC(=O)Cc2coc3cc4c(cc23)CCC4)cc1	68.7*	-2.7	5.0	-6.7	3.4	0.5	5.7%
CCOC(=O)C1(S(=O)(=O)c2ccc(Cl)cc2)CCN(Cc2ccc(C)cc2)CC1	-4.8	8.9	3.7	-7.2	2.0	-2.5	9.5%
COc1ccc(S(=O)(=O)N2CCC(C(=O)NCCc3ccc4c(c3)OCO4)CC2)cc1	-2.3	3.2	7.3	-1.7	-0.5	1.5	6.1%
CC1(C)Cc2ccccc2C(/C(=N\Nc2cccc(Cl)c2)C(N)=O)=N1	10.0	1.7	2.3	-13.8	26.7	-2.6	.
Cc1ccc(S(=O)(=O)N[C@H](C(=O)OCC(=O)NC(=O)C2CCCCC2)C(C)C)cc1	-1.5	-0.7	0.2	2.4	.	.	-10.8%
COc1ccc(C2=NN(S(C)(=O)=O)C(c3cccs3)C2)cc1OC (stereo not given)	-3.3	0.6	6.5	.	-19.7	-2.9	1.8%
O=C(CSc1ccc2ccccc2n1)NCCCN1CCCC1=O	5.5	0.0	2.5	-0.3	.	.	.
Cn1cccc1CC(=O)N/N=C/c1ccc(Cl)cc1	-0.1	-0.7	2.1	30.1	-1.0	-2.9	?
CCCCOCCCNC(=O)CN1C(=O)c2ccccc2C1=O	-4.6	6.3	3.3	-0.6	9.6	-2.1	31.2%
O=C(CSc1nnc(-c2ccccc2F)n1C1CC1)NCc1ccco1	-10.7	2.3	1.4	-4.0	.	.	2.6%
Cc1ccc(-c2nc3ccccc3c(=O)n2N)cc1	-3.4	-7.3	-0.5	-6.3	7.1	-1.6	.
CC(C)(C)CN1C(N)=NC[C@@H]1Cc1ccc(O)cc1	0.2	-1.3	2.0	35.2	-9.9	5.1	1.3%
COc1ccc(N2C(=NC(=O)C3CCCCC3)SC3CS(=O)(=O)CC32)cc1OC (stereo not given)	-2.0	7.2	-2.8	-7.1	0.3	6.3	.
O=C(NCc1cccnc1)c1cn(-c2ccccc2)nc1-c1ccccc1	-21.8	3.6	1.7	-14.8	37.6	2.1	2.1%
Cc1ccc(S(=O)(=O)N(C)C)cc1NC(=O)COC(=O)Cc1ccsc1	-8.3	6.0	2.7	-7.3	3.4	2.6	-1.1%
CC(C)N(CCO)C(=O)C(c1ccccc1)c1ccccc1	-2.7	-1.0	-3.5	-0.3	11.6	0.2	1.0%
CSc1nnc(-c2ccc(Cl)cc2Cl)o1	-9.0	-3.2	0.5	-3.4	-3.7	2.9	6.6%
CC1=Nc2ccccc2/C1=C\c1sc(Nc2ccc(C)cc2)nc1O	19.2	-1.0	5.7	.	3.7	21.4*	23.6%

One compound at a time, as listed above. Values in the order: Beta2AR agonist	LANA-H2A inh	HNF4A DNA FP	ALR inh	Calb FLC	RanGTP-Impb inh	Vif TR-FRET
Record of `Cc1cc(NC(=O)c2ccc([N+](=O)[O-])o2)ccc1NC(=O)c1ccco1` = 12.2	.	-0.4	.	57.8*	-4.5	.
Record of `CCc1nccn1Cc1cc(C=O)ccc1OC` = 1.3	1.2	3.6	-0.6	-8.4	-1.0	-7.8%
Record of `Cc1ccc(-c2nc3ccccc3c(=O)n2N)cc1` = -3.4	-7.3	-0.5	-6.3	7.1	-1.6	.
Record of `CC(C)(C)CN1C(N)=NC[C@@H]1Cc1ccc(O)cc1` = 0.2	-1.3	2.0	35.2	-9.9	5.1	1.3%
Record of `COc1ccc(C2=NN(S(C)(=O)=O)C(c3cccs3)C2)cc1OC` (stereo not given) = -3.3	0.6	6.5	.	-19.7	-2.9	1.8%

New compounds follow:
SMILES	Beta2AR agonist	LANA-H2A inh	HNF4A DNA FP	ALR inh	Calb FLC	RanGTP-Impb inh	Vif TR-FRET
COc1ccc(C(=O)Cn2c(NCCCO)nc3ccccc32)cc1OC	-3.8	5.5	1.6	1.2	-1.7	-2.4	4.4%
Cc1ccccc1C(=O)NCCCNC(=O)c1cnccn1	11.1	3.4	-0.9	-0.1	-10.7	0.1	.
O=C(Nc1nnc(C2CCCC2)s1)C1CCC1	-13.2	0.1	-6.1	0.4	-9.5	-0.4	-3.9%
CC1CCCCC1NC(=O)CCn1ccc2cc(S(=O)(=O)N3CCCC3)ccc21 (stereo not given)	10.4	2.0	-1.7	-6.3	-14.7	-2.6	-3.1%
O=C(O)CC(NC(=O)/C(=C/c1ccccc1)NC(=O)c1ccccc1)c1ccccc1 (stereo not given)	0.0	1.8	2.5	-3.7	16.3	5.0	-2.5%
NC(=O)C1CCCN(C(=O)c2ccc(Cl)c(S(=O)(=O)N3CCc4ccccc43)c2)C1 (stereo not given)	0.1	.	0.9	.	.	.	4.0%
CC(NC(=O)CCC(=O)N1CCCCCC1)c1ccccc1 (stereo not given)	-1.6	14.1*	0.0	-1.8	-9.6	1.9	.
CCCN(CCC)S(=O)(=O)c1ccc(C(=O)N2CCC(=O)c3ccccc32)cc1	19.8	4.8	3.9	-12.8	20.6	1.9	2.1%
COc1ccc(NC(=O)Cn2c(=O)n(-c3ccc(CC(=O)NCc4ccco4)cc3)c(=O)c3ccccc32)cc1	-0.4	6.6	-3.0	0.5	-8.6	0.6	-5.7%
COc1cccc(C(=O)O/N=C(\N)c2ccccn2)c1OC	-8.4	1.0	1.0	-2.9	28.7	3.7	.
CC1=Nc2ccccc2/C1=C/c1sc(=S)n(-c2cccc(C(=O)O)c2)c1O	-139.8	.	122.3	.	-0.9	2.7	-3.7%
COc1ccc2[nH]c(-c3ccccc3)cc2c1	6.5	-13.6	-2.7	12.2	0.3	0.1	1.2%&11.0%
CCCCn1c(N)c(N(CCOC)C(=O)COC(=O)COc2cc(C)c(Cl)cc2C(C)C)c(=O)[nH]c1=O	10.1	-5.7	0.2	-1.9	-0.7	-0.4	-1.2%
COc1ccc(CCNC(=S)N(C)C)cc1OC	-5.8	-1.1	3.8	0.7	14.8	-3.8	0.9%
CC(=O)Nc1ccc(NC(=O)CSCc2cnn(-c3ccccc3)c2-n2cccc2)cc1	-4.7	-3.9	1.4	98.3*	-21.0	1.9	25.9µM*
CC1CC(C)CN(CC(=O)c2c[nH]c3ccccc23)C1 (stereo not given)	-160.1	0.3	34.2	-10.3	-5.1	?	-0.2%
O=S(=O)(Nc1ccc2c3c(cccc13)CC2)c1ccc(F)cc1	10.9	0.2	10.1	5.7	-5.0	-7.3	0.4%
Cc1ccccc1C(=O)N1CCC(C(=O)N2CCN(Cc3ccc4c(c3)OCO4)CC2)CC1	1.5	-5.1	1.7	-12.6	.	.	-10.4%
Cc1ccc(NC(=O)CCc2c(C)nn(-c3ccc(N4CCCCC4)nn3)c2C)cc1C	-5.3	0.9	-2.4	-4.5	6.1	1.3	.
